MARV entry inh = qHTS for inhibitors of binding or entry into cells for Marburg Virus | Marburg virus pseudotyped entry inhibition, cell reporter; control for the full effect not named in the record; about a third of the inactives were read at about 46 µM | actives 1.8% (n = 300,000) | Potency, µM (series often up to 37.8 µM), without a hit: at the highest dose activity change, negative = inhibition, usual class: inhibitors; active = well fitted inhibition curve with a large enough effect; inconclusive = small, poorly fitted or top-dose-only effect, or effect the other way; inactive = flat fitted curve, though single readings scatter; tested in HEK293 cells; about a fifth of its hits are not listed in these tables; further: on the % scale 0 is the no-effect control and ±100 the full control effect; luciferase read-out
Cruzain noTriton = qHTS Assay for Promiscuous and Specific Inhibitors of Cruzain (without detergent) | Potency, µM, for the others: max response, negative = inhibition, most hits filed as inhibitors | AID 1476, 2009 | Cruzipain (Trypanosoma cruzi), P25779 | purified cruzain, Z-FR-AMC fluorescence, no detergent | actives 2.3% (n = 200,000);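 further: plate controls were enzyme without inhibitor for no effect and buffer without enzyme for full effect; nearly all actives have a fitted effect of over 40% in size; top concentration of the series not given in the record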
Target sequence (P25779 123-467 limits assumed): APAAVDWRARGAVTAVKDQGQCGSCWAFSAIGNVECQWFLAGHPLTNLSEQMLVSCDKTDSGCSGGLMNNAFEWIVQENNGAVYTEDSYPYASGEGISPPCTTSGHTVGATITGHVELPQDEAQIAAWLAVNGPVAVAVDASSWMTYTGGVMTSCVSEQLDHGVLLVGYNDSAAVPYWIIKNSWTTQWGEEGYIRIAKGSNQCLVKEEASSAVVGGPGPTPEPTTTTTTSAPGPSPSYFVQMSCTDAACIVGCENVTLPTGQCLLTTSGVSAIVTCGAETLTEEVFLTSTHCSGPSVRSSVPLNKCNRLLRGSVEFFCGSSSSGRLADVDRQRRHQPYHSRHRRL
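Detergent-free condition (0.00005% Triton X-100) in acetate buffer pH 5.5 with DTT. 1.5 nM enzyme and compound were pre-mixed 15 min, then 2 uM Z-FR-AMC substrate added; reaction progress from fluorescence change between first and third reads (60 s).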
Cruzain Triton = qHTS Assay for Promiscuous and Specific Inhibitors of Cruzain (with detergent); actives 0.43% (n = 200,000); Potency, µM, without a hit: max response, negative = inhibition, hits mostly inhibitors; purified cruzain, Z-FR-AMC fluorescence, 0.01% Triton; AID 1478, 2009;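 further: plate controls were neutral wells for no effect and buffer without enzyme for full effect; nearly all actives have a fitted effect of over 40% in size; top concentration of the series not given in the record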
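Steps: dispense cruzain (1.5 nM final) in acetate buffer pH 5.5 with DTT and 0.01% Triton X-100; pin-transfer compounds; incubate 15 min RT; add Z-FR-AMC (2 uM final); read fluorescence every 30 s, using the 60 s intensity change.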
StopGo reporter = High Throughput Screening for Foot and Mouth Disease Virus Antivirals; human cells with a luciferase reporter of 2A StopGo recoding; control for the full effect not named in the record; actives 1.2% (n = 410,000); Potency, µM (series often up to 57.9 µM), for the others: at the top dose signal change, negative = less light; active = well fitted falling curve with a large enough effect; inconclusive = small, poorly fitted or top-dose-only effect; inactive = no such curve, though single readings can be large or run the other way; tested in HEK293T cells; further: on the % scale 0 is the no-effect control and ±100 the full control effect; nearly all actives have a fitted effect of over 45% in size; luciferase light after 4 h
RE007 growth inh = qHTS Assay for Inhibitors of the HIV-1 protein Vpr. AID 651644, 2012. Potency, µM (titrated, usually from 92.2 µM), for the others: at the highest dose activity change, negative = less growth. S. pombe RE007 Vpr strain, BacTiter-Glo ATP luminescence, 24 h; control for the full effect not named in the record. actives 0.21% (n = 360,000); active = well fitted falling curve with a large enough effect; inconclusive = small, poorly fitted or top-dose-only effect; inactive = no such curve, though single readings can be large or run the other way;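 further: on the % scale 0 is the no-effect control and ±100 the full control effect; nearly all actives have a fitted effect of over 50% in size; the assay follows cell death caused by Vpr and the record does not say whether a fall means rescue or toxicity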
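Fission yeast RE007 carrying one integrated HIV-1 vpr copy, seeded at OD 0.01 in PMG+AL medium with 23 nL pinned compound. Grown 24 h at 30 degrees; viability read by BacTiter-Glo luminescence after 5 min.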
SARS PLpro yeast = qHTS of Yeast-based Assay for SARS-CoV PLP; S. cerevisiae expressing SARS-CoV PLpro, growth rescue; control for the full effect not named in the record; Potency, µM (series often up to 32.9 µM), for inactives: top-dose activity, positive = growth rescue; actives 0.19% (n = 330,000); AID 485353, 2010; active means well fitted rising curve with a large enough effect; inconclusive means small, poorly fitted or top-dose-only effect; inactive means no such curve, though single readings can be large or run the other way; further: 0% is about no effect; nearly all actives have a fitted effect of over 55% in size; growth read by luminescence after 48 h
NS1 function inh = qHTS Assay for Inhibitors of Influenza NS1 Protein Function; Potency, µM (top dose mostly 46.1 µM), for the others: top-dose activity, positive = more growth; S. cerevisiae slowed by influenza A NS1, growth recovery by OD600; actives 0.4% (n = 270,000); active means well fitted rising curve with a large enough effect; inconclusive means small, poorly fitted or top-dose-only effect; inactive means no such curve, though single readings can be large or run the other way; further: nearly all actives have a fitted effect of over 50% in size
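Read-out: OD600 growth recovery of NS1-expressing budding yeast. Cells grown overnight at 30C in -URA glucose medium, washed, resuspended and diluted 1:100 in 2% galactose assay medium, pH 6.0. Same strain lacking NS1 served as positive control.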
LASV entry inh = qHTS for Inhibitors of binding or entry into cells for Lassa Virus; AID 540256, 2011; actives 1.2% (n = 300,000); Lassa virus pseudotype entry inhibition, cell reporter; control for the full effect not named in the record; Potency, µM (top dose mostly 37.9 µM), for inactives: at the highest dose activity change, negative = inhibition, hits mostly inhibitors; active means well fitted inhibition curve with a large enough effect; inconclusive means small, poorly fitted or top-dose-only effect, or effect the other way; inactive means flat fitted curve, though single readings scatter; tested in HEK293 cells; further: on the % scale 0 is the no-effect control and ±100 the full control effect; nearly all actives have a fitted effect of over 50% in size; luciferase read-out
An asterisk follows results filed as active; u = inconclusive; x = no result given; [ ] = remark or other dose. Unless noted, the call rests on the fitted dose curve; in most records, active means well fitted curve in the direction sought with a large enough effect; inconclusive means small, poorly fitted or top-dose-only effect, or another doubt; inactive means no such curve, though single readings can be large; an effect the other way counts as inactive or inconclusive. Potency means the concentration at half of the fitted maximal effect.

SMILES | MARV entry inh | Cruzain noTriton | Cruzain Triton | StopGo reporter | RE007 growth inh | SARS PLpro yeast | NS1 function inh | LASV entry inh
CCc1nnc(NC(=O)C2CCN(S(=O)(=O)Cc3ccccc3)CC2)s1 | u | 1.7% | 1.3% | -11.1% | -11.2% | -2.8% | -2.2% | -0.1%
COC(=O)c1ccc(N2C(=O)CC(N(C)CCc3ccc(OC)c(OC)c3)C2=O)cc1 (stereo unspecified) | -3.2% | u | 5.4% | -6.8% | 7.94µM* | -28.6% | -251.1% | -1.5%
O=C(Nc1ccccc1-c1ccccc1)C1CCCN(c2ncccn2)C1 (stereo unspecified) | -1.9% | -3.1% | 2.9% | -6.4% | -7.4% | 3.0% | -35.4% | -28.6%[14.3 µM]
COCCn1c(=S)[nH]c2cc(C(=O)N(CCO)Cc3ccccc3)ccc2c1=O | 0.6%[46.1 µM] | x | x | -12.3% | 14.1% | -2.2% | 1.3% | -9.4%[46.1 µM]
Cc1cc(C)cc(Oc2nc(C(F)(F)F)nc3ccccc23)c1 | u | -3.8% | -9.7% | -20.0% | 23.8% | -6.3% | 4.6% | -7.8%
Cc1cc(C)c(S(=O)(=O)Nc2cc(Cl)c3oc4c(c3c2)C(=O)CCC4)cc1C | 10.0%[46.1 µM] | -6.2% | -1.2% | 37.0%[activator] | x | x | x | 12.6%[46.1 µM]
CN(C)CCNC(=O)c1ccc2c(c1)N(Cc1c(F)cccc1Cl)C(=O)c1ccccc1S2 | u | -8.9% | 4.3% | -13.4% | x | x | x | u
Cn1c(O)c(/C=C2\N=c3ccccc3=C2CCNC(=S)NC2CC2)c(=O)n(C)c1=O | 7.1%[46.1 µM] | x | x | 12.6µM* | -7.9% | -1.7% | -2.8% | -8.6%[46.1 µM]
Cc1ccccc1NC(=S)N(Cc1ccccn1)Cc1ccccc1Cl | u | x | x | 27.7% | 9.0% | 8.7% | -1.0% | u
COc1cccc(/C=N/n2c(SC)nnc2-c2ccccc2)c1O | u | 4.4% | 0.9% | -23.4% | 15.8% | -4.4% | -78.8% | u
CCOC(=O)c1ccc(NC(=O)c2c(NCc3cc(OC)ccc3OC)sc3c2CCC3)cc1 | x | -15.8% | -9.3% | -10.1% | x | x | x | 28.2%[46.1 µM]
Cn1nccc1C(=O)N/N=C/c1c(O)ccc2ccccc12 | x | x | x | 46.2%[activator] | 9.2% | -6.7% | -11.9% | x
CCOc1ccc(N2CC(C(=O)Nc3ccc(S(=O)(=O)N4CCCCC4)cc3)CC2=O)cc1 (stereo unspecified) | u | x | x | 20.2% | 7.6% | -5.9% | x | -3.8%
O=C1CCC(=O)N1CC(=O)N1c2ccccc2Sc2ccccc21 | 7.5% | 6.2% | -2.1% | -3.6% | -8.0% | 1.5% | 5.0% | 6.3%
O=C(CN(Cc1ccco1)C(=O)c1ccccc1)Nc1ccc(Cl)c(Cl)c1 | u | -10.7% | -9.6% | -2.3% | 1.8% | -17.1% | -30.0% | u
CCN(CC)C(=O)c1ccc(Nc2nnc(-c3ccc(O)cc3)c3ccccc23)cc1 | x | x | x | u | -15.3% | 4.8% | 2.2% | x
COc1ccc(S(=O)(=O)Nc2c(C)cc(C)cc2C)c2cccnc12 | x | x | x | u | 2.1% | 5.1% | -9.3% | x
O=C(Cc1ccccc1)NC(c1ccco1)c1c(O)ccc2ccccc12 (stereo unspecified) | x | x | x | -10.0% | -10.1% | -1.6% | 0.0% | x
Cc1ccc(CCNC(=O)C2CCCN(S(=O)(=O)c3c(C)noc3/C=C/N(C)C)C2)cc1 (stereo unspecified) | x | u | -8.2% | -10.7% | -5.1% | 1.1% | u | x
Cc1cnn(-c2cc(N/N=C/c3ccccc3Cl)ncn2)c1 | 9.5% | -2.5% | 6.4% | -11.6% | -4.0% | 2.8% | 14.1µM* | 2.5%
Cc1nn(-c2ccccc2)c(C)c1/C=C/C(=O)OCC(=O)Nc1ncc(Cl)cc1Cl | 12.3% | 6.5% | -6.3% | u | -9.8% | 3.5% | -1.0% | -15.4%
O=C(COc1ccc(Cl)cc1Cl)NCCCn1ccnc1 | -3.6% | u | 3.2% | -9.9% | -0.7% | 2.4% | 11.7% | 0.4%
Cc1cc(OCc2cc(C(=O)NCC3(C)COC3)no2)cc(C)c1Cl | x | x | x | -14.4% | 7.9% | u | 0.9% | x
O=[N+]([O-])c1cc(C(F)(F)F)ccc1N1CCCC(O)C1 (stereo unspecified) | u | x | x | -5.2% | 6.8% | 0.3% | x | 2.2%
CC1(C)CC(=O)C(C=Nc2cc(C(=O)c3ccccc3)ccc2N)=C(O)C1 | -17.3%[46.1 µM] | x | x | 6.1% | 4.3% | -15.4% | 1.2% | -19.5%[46.1 µM]
COc1ccc(S(=O)(=O)N2CCCCC2)cc1NC(=O)Cc1c[nH]c2ccccc12 | -20.2% | u | -6.3% | 8.0% | -19.7% | -11.0% | u | u
COCCNC(=O)CN1C(=O)C(C)N=C(c2ccccc2)c2cc(Cl)ccc21 (stereo unspecified) | 1.9% | x | x | -11.3% | -4.2% | 14.8% | 1.3% | 2.3%
O=C(CCc1nnc2n(Cc3ccccc3Cl)c(=O)c3ccccc3n12)NCCCN1CCOCC1 | x | x | x | -1.3% | -6.5% | -1.4% | -2.7% | x
COC(=O)C1C(=O)CC(C)(O)C(C(=O)OC)C1/C=C/c1ccccc1 (stereo unspecified) | 15.6% | 4.8% | 3.2% | u | -18.5% | -0.3% | 2.0% | -11.0%
Cc1cc(C)n(C(=O)c2ccc(Cn3nc(C)c(Br)c3C)o2)n1 | -1.7% | u | -2.0% | -2.9% | -9.9%[3.69 µM] | -5.0% | -2.5% | -22.3%
CC(C)Oc1ccc(OCCSc2nc3ccccc3n2CC(=O)O)cc1 | x | x | x | -5.1% | -2.4% | 2.9% | 1.1% | x
CCCCn1c(N)c(N(CC(C)C)C(=O)c2cccc(S(=O)(=O)N3CC(C)OC(C)C3)c2)c(=O)[nH]c1=O (stereo unspecified) | 8.1%[46.1 µM] | x | x | -10.2% | -0.9% | -2.9% | x | -5.8%
COc1cc(C(=O)Nc2ccccc2SCc2cc(=O)n3nc(C)sc3n2)cc(OC)c1OC | x | x | x | -15.9% | 0.8% | 4.9% | -2.3% | x
Cc1ccc(Nc2nnc(C)c(=O)[nH]2)cc1 | 21.6%[46.1 µM] | x | x | -12.1% | -5.3% | 0.0% | x | 11.8%
CCCCN1C(=O)c2ccc(C(=O)NC3=NCCS3)cc2C1=O | 29.5%[46.1 µM] | -6.0% | -8.2% | -11.5% | -10.9% | -20.4% | -48.4% | 7.9%
COc1ccc2nc(C)cc(SCC(=O)NNC(=O)COc3ccccc3)c2c1 | -15.3% | -7.6% | -7.1% | -11.6% | 2.3% | 5.3% | -4.2% | -5.0%
CC1CCN(C2CCN(C(=O)c3ccccc3F)CC2)CC1 | -6.8%[46.1 µM] | x | x | 9.2% | 13.8% | -0.6% | 7.6% | -4.6%
COc1ccc2cc(C(=O)/C=C/c3cc(OC)c(O)c(OC)c3)ccc2c1 | u | x | x | 20.5% | -22.3% | -0.6% | 15.9% | u
c1ccc2[nH]c(-c3nc4ccccc4[nH]3)nc2c1 | u | 9.0% | -1.0% | -28.9% | -11.2% | -5.8% | 1.4% | u
C(=N\N1CCN(Cc2ccccc2)CC1)/c1ccc(-c2ccccc2)cc1 | x | x | x | -20.3% | -12.4% | -1.2% | 6.5% | x
C[n+]1ccccc1/C=C/c1cc(Br)ccc1O | x | x | x | -13.6% | -23.4% | 2.0% | -3.4% | x
COc1cccc(NC(=O)C(=O)c2cn(CC(=O)N3CCCC3)c3ccccc23)c1 | x | x | x | 12.0% | 4.5% | 17.1% | 25.4% | x
Cc1cccc(C)c1OCC(=O)N/N=C/c1cccnc1 | 1.4%[46.1 µM] | x | x | 10.0% | -8.4% | -2.8% | 0.5% | -31.7%
Cc1ccc(C)c(N2CCN(S(=O)(=O)c3ccc4[nH]c(=O)c(=O)[nH]c4c3)CC2)c1 | 13.0% | 19.4% | -1.8% | 3.9% | 13.5% | 9.6% | -9.8% | u
O=C(c1ccc(N2C(=O)C3C4c5ccccc5C(c5ccccc54)C3C2=O)cc1)N1CCOCC1 (stereo unspecified) | -4.4% | u | -1.7% | 0.0% | 6.3% | 1.1% | -13.6% | -8.8%
CCN(CC)S(=O)(=O)c1ccc(NC(=O)COc2c(OC)cccc2OC)cc1 | -18.3% | 12.0% | -5.9% | 31.6µM* | 8.8% | -1.2% | -7.0% | -23.6%
Cc1sc2ccc3sccc3c2[n+]1C | -0.6%[46.1 µM] | x | x | -9.6% | 1.6% | -1.2% | 5.3% | u
COc1ccc(CN2CCN(C(C)C(=O)N(C)Cc3cccc(F)c3)CC2)cc1OC (stereo unspecified) | x | x | x | -29.2% | -28.9% | 0.7% | 4.2% | x
COc1ccccc1/C=C1\SC(=S)N(CCC(=O)N2CCN(C)CC2)C1=O | x | x | x | 9.9% | -9.8% | 5.0% | 4.5% | x
CC1CCCCN1c1nnc(NC(=O)Nc2ccccc2F)s1 (stereo unspecified) | 3.4%[46.1 µM] | u | -8.6% | -12.1% | x | x | x | -3.5%[46.1 µM]
O=C(NCC(c1ccco1)N1CCN(c2ccccc2F)CC1)C(=O)NC1CC1 (stereo unspecified) | -1.7% | x | x | -9.8% | -4.7% | 1.3% | x | -25.1%
COc1ccc(CC(=O)Nc2ccc(C(C)=O)cc2)cc1 | x | x | x | 25.9% | 52.2% | 0.8% | 2.0% | x
N#C/C(=C/c1ccc(N2CCOCC2)o1)c1ccc(Cl)cc1 | u | u | -13.4% | x | u | -16.0% | -52.4% | -6.5%
Cc1nnc(NC(=O)c2cccn(Cc3ccccc3F)c2=O)s1 | x | -1.5% | -0.5% | 45.6%[activator] | x | x | x | 12.5%[46.1 µM]
COc1ccc2c(c1)CCc1c(C(=O)Nc3ccn(Cc4ccc(C)cc4)n3)noc1-2 | u | -24.8% | -2.3% | 17.7% | 14.3% | 0.2% | -0.3% | u
CN(C(=O)CSc1nc2cc([N+](=O)[O-])ccc2n1-c1ccc(F)cc1)C1CCS(=O)(=O)C1 (stereo unspecified) | -8.7% | -8.4% | -3.3% | -12.1% | 3.5% | -8.2% | -4.3% | 2.8%

Assay outcomes from PubChem.
